Bioassay records as filed in PubChem.
Tgondii IFNg: blocks Toxoplasma gondii growth in the presence of IFN-gamma; Toxoplasma gondii growth in IFN-gamma-treated host cells; stronger effect = lower value; reference of the scale not given here; activity change, negative = inhibition, %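 (about 20 µM by stock and volumes)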; 3.8% of 69,000 active; AID 1259416;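 active means below -70%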;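 further: host cells are HeLa cells infected with Toxoplasma gondii; parasite growth read as luciferase light; one replicate is shown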
* = called active by the depositor; i = inactive; & = joins results of further samples. This is a subset, so the mix of outcomes need not match the whole.

SMILES | Tgondii IFNg
CC(C)C(=O)Nc1cccnc1-c1cccc2ccnn12 | 7
COc1ccc(OC)c(S(=O)(=O)N2CCCc3ccccc32)c1 | -5
CCCc1cnc(C)nc1-c1cccc(C(C)=O)c1 | 6
COc1ccc(Br)cc1-c1nc(Cn2nnc(C(=O)Nc3ccc(C)c(F)c3)c2C)c(C)o1 | 136
CCc1cn[nH]c1C1CCN(Cc2ccccc2OCCO)CC1 | -6
CCn1cnnc1C(C)NC(=O)c1cnc2ccccc2c1 (stereo unspecified) | 5
Cc1nn(CCC#N)c(C)c1Cc1c(Cl)cccc1Cl | -111*
C=CCn1c(=O)c(C(=O)NCc2ccc(C(=O)O)cc2)c(O)c2ccccc21 | 19
CC(C)Nc1ncc(-c2nccn2CCc2cnc[nH]2)cn1 | -3
CC(C)N(C)Cc1noc2c1CN(C(=O)c1cnccn1)CC2 | 7
C[C@H]1CN([C@@H](C)CO)C(=O)c2ccccc2-c2ccccc2CO[C@@H]1CN(C)S(=O)(=O)c1cccc(C#N)c1 | -43
O=C(Nc1cnn(-c2ncncc2N2CCSCC2)c1)C1CCCCC1 | 12
CCn1nc(C(C)C)cc1C(=O)N1CCC1c1ccc(F)cc1 (stereo unspecified) | -3
CC(=O)NCC(=O)N1C[C@H](OCc2cccnc2)[C@@H]2COC[C@@H]21 | 3
CCOC(=O)N1CCC2(CC1)OC(=O)C(C)=C2C(=O)NCc1ccccc1 | 43
Cc1ccc(-c2cc(-c3ccccc3)c3c(n2)-c2ccccc2CCC3)cc1 | 10
CCc1cn[nH]c1C1CCN(C(=O)Cc2c(C)[nH][nH]c2=O)CC1 | -4
C/C=C/c1ccc([C@@H]2[C@@H](CN(CC)C(=O)CN(C)C)N(C(C)=O)[C@H]2CO)cc1 | -13
Cc1cc(C(=O)NC(c2nc3c4c(C)c(C)oc4ncn3n2)C(C)C)cs1 (stereo unspecified) | 2
Cc1csc(-c2sc3ccccc3c2O)n1 | -28

An excerpt from above in order of SMILES length, high to low:
SMILES | Tgondii IFNg
C[C@H]1CN([C@@H](C)CO)C(=O)c2ccccc2-c2ccccc2CO[C@@H]1CN(C)S(=O)(=O)c1cccc(C#N)c1 | -43
CCCc1cnc(C)nc1-c1cccc(C(C)=O)c1 | 6
Cc1csc(-c2sc3ccccc3c2O)n1 | -28

The listing picks up, repeating the 6 entries before the break.
SMILES | Tgondii IFNg
CCOC(=O)N1CCC2(CC1)OC(=O)C(C)=C2C(=O)NCc1ccccc1 | 43
Cc1ccc(-c2cc(-c3ccccc3)c3c(n2)-c2ccccc2CCC3)cc1 | 10
CCc1cn[nH]c1C1CCN(C(=O)Cc2c(C)[nH][nH]c2=O)CC1 | -4
C/C=C/c1ccc([C@@H]2[C@@H](CN(CC)C(=O)CN(C)C)N(C(C)=O)[C@H]2CO)cc1 | -13
Cc1cc(C(=O)NC(c2nc3c4c(C)c(C)oc4ncn3n2)C(C)C)cs1 (stereo unspecified) | 2
Cc1csc(-c2sc3ccccc3c2O)n1 | -28
C/C=C/c1ccc([C@H]2[C@H](CO)N(C(=O)CN(C)C)C23CN(C(=O)C2CCOCC2)C3)cc1 | 26
CO[C@@H]1CC[C@H]2CCOc3ccc(C#N)cc3C(=O)N(C)C[C@@H](c3ccccc3)CC(=O)N(C)C[C@H]1O2 | 0
Nc1ccc(Oc2cc(C(F)(F)F)cc(C(F)(F)F)c2)cc1 | -28
Cc1nnsc1C(=O)N1CCC(c2n[nH]c(=O)n2Cc2ccccc2)CC1 | -28
CCO[C@H]1COC[C@@H]1Nc1ncc(C)c(N(C)C)n1 | -4
CN1CC2(CCN(C(=O)CCn3cc(Cl)cn3)C2)OC1=O (stereo unspecified) | 31
N#CC(C(=S)Nc1ccccc1)c1nc2ccccc2[nH]1 (stereo unspecified) | i
Cc1cc(C(=O)NCC2CCCN(Cc3ccccn3)C2)n[nH]1 (stereo unspecified) | 0
FC(F)(F)c1ccc(Cn2cnc(-c3ccccc3)c2C2CC2)cn1 | 30
COc1ccc2c(c1)NC1(CCN(C(=O)c3ccncc3)CC1)NS2(=O)=O | -2
O=C(c1ccc2c(c1)OCO2)N1CCc2c([nH]c3ccccc23)C1c1ccccc1 (stereo unspecified) | -98*
Cc1ccc(C2(O)CCN(C(=O)C(C)n3cnc4ccccc43)CC2)nc1 (stereo unspecified) | 11
c1cncc(COC2CCN(CC3CCOC3)CC2)c1 (stereo unspecified) | 2
COc1ccc(-c2nn(CCC#N)c(=O)[nH]2)cc1 | 23
CS(=O)(=O)N1[C@H](C#N)[C@@H](c2ccccc2-c2ccccc2F)[C@H]1CO | -50
C=CCN1C(=O)CCC12CCN(Cc1c(C)noc1C)CC2 | 9
O=C(Cc1ccc(F)cc1)N1CCC2(CC1)Nc1cc(F)ccc1-n1cccc12 | 52
NCCCCCCNS(=O)(=O)c1ccc2c(Cl)cccc2c1 | -69
O=C(Nc1ccc(Cl)cc1)c1cnc(NC2CCCCC2)cc1C(F)(F)F | -110*
CCOC(=O)c1ccc(NC(=O)N2CCC3(CC2)Nc2cc(F)ccc2-n2cccc23)cc1 | 100
Cc1ccc(CN2CCC3(CC2)OC(C(=O)Nc2cccnc2C)Cn2ccnc23)cc1 (stereo unspecified) | 15
O=C(c1cccc(Cn2cccn2)c1)N1CCCC1c1ccccn1 (stereo unspecified) | -8
CC(C)(c1ccc(O)cc1)c1ccc(O)cc1 | 19
O=C(NC(=O)c1ccc(C(F)(F)F)cc1)Nc1ccc(-c2cnco2)cc1 | -8
CN(C)CC(=O)N1Cc2cc(Oc3cccnc3)ccc2C1c1cnco1 (stereo unspecified) | -36
COc1ccc(N2CCN(C(=O)c3oc4c(c3C)C(=O)CCC4)CC2)cc1 | 93
Cc1ccc(NC(=O)CC(=O)N(C)CC2CCCCO2)cc1 (stereo unspecified) | 3
CCC(=O)OCC(=O)[C@@]1(OC(=O)CC)[C@H](C)CC2C3C([C@@H](O)C[C@@]21C)[C@@]1(C)C=CC(=O)C=C1C[C@H]3Cl (stereo partly specified) | 16
Cc1cc(C)nc(Nc2n[nH]c(COc3ccc4ccccc4c3)n2)n1 | -44
COc1ccccc1CNC(=O)CCC1Nc2c3ccccc3nc(=S)n2C1=O (stereo unspecified) | 5
Cc1ccc(-n2cc(CN(C)CCc3cnn(C)c3)c(-c3cccc(C)c3)n2)cc1 | -25
Cc1ccc(S(=O)(=O)N2CCC3(CCC(C(=O)NCC4CC4)O3)CC2)cc1F (stereo unspecified) | -20
CC(C)c1ccc(C(=O)N2CCOC(Cc3ccccc3Cl)C2)c(=O)n1C (stereo unspecified) | 2
Cc1ccc(F)cc1NC(=O)c1c(O)c2ccccc2n(-c2ccccc2)c1=O | 81
CCOC(=O)c1sc(NC(=O)CSc2nc(N)cc(N)n2)nc1-c1ccccc1 | -2
CC(=O)Nc1ccc(S(=O)(=O)N2CCC(O)(c3ccccn3)CC2)cc1 | 3
COCCN(C)C(=O)c1ncn2c(C3CCN(C(C)C)CC3)ccnc12 | -47
COc1ccc(S(=O)(=O)N(C)C[C@@H]2Oc3ccc(NC(=O)Cc4cn(C)c5ccccc45)cc3C(=O)N([C@H](C)CO)C[C@@H]2C)cc1 | -8
CNc1ncc(C(=O)N2CCC(C3CCCCN3C(=O)c3scnc3C)CC2)cn1 (stereo unspecified) | -1
O=C(NC(=S)SCc1ccccc1)c1ccc(C(F)(F)F)cc1 | -10
COc1ccc(OC)c(CNC(=O)Cn2ncc3c(N4CCCCCC4)ncnc32)c1 | -18
O=C(Cn1ncc2c(N3CCCCCC3)ncnc21)NCc1ccc(Br)cc1 | -93*
COc1ccc2c3c([nH]c2c1)[C@H](CO)N(C)CC31CCN(C(=O)c2ccccn2)CC1 | i
Cn1ccnc1CN1CCCC2(CC(Nc3cccc(F)c3)CO2)C1 (stereo unspecified) | 32
C=CCO[C@@H]1CC[C@@H]2[C@H]1OCCN2C(=O)C1=CCCCC1 | 20
COc1ccc2oc(CNC(=O)CCN3CCCCCCC3)nc2c1 | 4
N#CCCSc1sc(=S)sc1SCCC#N | 0
Cc1cccc(C)c1NC(=O)C(=O)NCCc1csc(-c2ccc(F)cc2)n1 | -78*
C1=C(c2ccccc2)OC(c2ccccc2)=CC1c1cccs1 | 35
COc1cc(-c2cc(Cl)ccc2NC(C)=O)cc(OC)c1OC | -3
O=C(c1ccccc1)N1CCO[C@@H]2[C@H]1CC[C@H]2OCC1CCOCC1 | -44
CCOc1ccccc1-c1nc(Cn2nnc(C(=O)Nc3cccc(Cl)c3)c2C)c(C)o1 | 321
Cc1ccccc1-c1nc(CN2CCN(C(=O)NC3CCCC3)CC2)c(C)o1 | 1
CCCc1cc(=O)[nH]c(SCC(=O)NC2Cc3ccccc3C2)n1 | -14
Cn1nc(C2CCN(C(=O)c3cnon3)CC2)n(-c2ccccc2)c1=O | 53
COc1ccc(C(=O)N2CCc3c([nH]c4ccccc34)C2c2ccc(C)cc2)cc1 (stereo unspecified) | i
CC(=O)N1[C@@H](CO)[C@@H]2c3ccccc3N(C(=O)c3ccc(F)cc3)C[C@@H]21 | -1
CC(C)NC(=O)NCC[C@H]1CC[C@@H](NS(=O)(=O)c2ccc(Oc3ccccc3)cc2)[C@@H](CO)O1 | -39
Cc1cccc(N2CCCC3(C2)CN(c2nncs2)CCO3)c1 (stereo unspecified) | -23
c1ccc(Nc2ccc(-n3cnnc3)cn2)cc1 | -7

Of the compounds above, these contain bromine.
SMILES | Tgondii IFNg
COc1ccc(Br)cc1-c1nc(Cn2nnc(C(=O)Nc3ccc(C)c(F)c3)c2C)c(C)o1 | 136
O=C(Cn1ncc2c(N3CCCCCC3)ncnc21)NCc1ccc(Br)cc1 | -93*

Continued:
SMILES | Tgondii IFNg
Cc1cccnc1CN1CCC2(CC1)CC(Nc1ncccn1)C2 | -2
CCC(NC(=O)c1cccc(F)c1OC)c1cccs1 (stereo unspecified) | -1
Cc1ccc(-c2nnc(CNCC3OCCc4ccccc43)o2)n1C (stereo unspecified) | -15
CC(=O)NCC(=O)N1CCC2(CC1)CC(c1ccccc1)C(=O)N2 (stereo unspecified) | -39
FC(F)(F)CCN1CCCC2(CCN(c3cnccn3)CC2)C1 | -5
Cc1noc(-c2cc(=O)n(CC(=O)Nc3c(C)cccc3C)c3ccccc23)n1 | 42
COc1ccccc1-c1ccccc1[C@@H]1[C@@H](CO)N(C(=O)C2CCOCC2)[C@H]1C#N | -10
CCOC(=O)c1c(C)c(C#N)c(N)n1-c1ccc(C)cc1 | -12
C[C@@H](CN1CCC(Cc2ccccc2)CC1)[C@@H](O)c1ccc(O)cc1 | 6&9
Cc1ccc(S(=O)(=O)N2CC(C(=O)Nc3cccc(F)c3)C3(CCOCC3)C2)cc1 (stereo unspecified) | -75*
CCn1cc2c3c(cccc31)CN(C(=O)c1cccnc1Cl)CC2 | 35
O=c1cc(CN2CCCC(CCc3ccc(F)c(F)c3)C2)nc2nc[nH]n12 (stereo unspecified) | 0
CC(C)N(CC[C@H](c1ccccc1)c1cc(CO)ccc1O)C(C)C | 17
CC(=O)Nc1ccc(-c2c(-c3ccccc3)ncn2CCc2cn[nH]c2)cc1 | -1
CC(C)N1CCOCC2(CCCN(C(=O)c3cn(C)cn3)C2)C1 (stereo unspecified) | -2
C(=C\c1ccco1)/CN1CCCn2cncc2C1 | -1
Cn1cc(N2C(=O)CC3C2CCN3C(=O)Cc2cccc(F)c2)cn1 (stereo unspecified) | 6
Cc1ccc(-c2ccc(OCC(=O)NCC3CCCO3)cc2)cc1 (stereo unspecified) | 26
C[C@@H]1C(SC2CN(C3=NCCS3)C2)=C(C(=O)OCOC(=O)C(C)(C)C)N2C(=O)[C@H]([C@@H](C)O)[C@H]12 | 2
Cc1ccc2c(c1C)-n1cccc1C1(CCN(C(=O)c3cccc(Br)c3)CC1)N2 | 30

Another view of some results above.
Compound	Tgondii IFNg
C(=C\c1ccco1)/CN1CCCn2cncc2C1	-1
Cc1ccc(S(=O)(=O)N2CC(C(=O)Nc3cccc(F)c3)C3(CCOCC3)C2)cc1 (stereo unspecified)	-75*

(further entries)
SMILES | Tgondii IFNg
CC(c1cccs1)N(C)Cc1cnc(-c2ccco2)nc1 (stereo unspecified) | 111
CC(=O)Nc1ccc(S(=O)(=O)N2CCN(c3ccccc3Cl)CC2)cc1 | -6
C=CCOC(=O)C1C(c2ccc(O)c(OCC)c2)c2c([nH][nH]c2=O)CC1(C)O (stereo unspecified) | 10
Cc1ccsc1CN(C(=O)c1ccc(S(N)(=O)=O)cc1)C1CC1 | -3
Cc1ccc(Cl)cc1NC(=O)Cn1c(=O)cc(C(=O)N2CCCC2)c2ccccc21 | 2
COC(=O)C(Cc1csc2ccc(Cl)cc12)NC(=O)c1ccc(C(F)(F)F)cc1 (stereo unspecified) | 47
CCCCc1ccc(Nc2ncnc3c2cnn3-c2ccc(OC)cc2)cc1 | 10
CC(C)NC(=O)c1nc2c(o1)CN(C(=O)NC(C)C)C2 | -29
O=C(Cn1c(=O)cc(-c2nc(C3CC3)no2)c2ccccc21)Nc1cccc(F)c1 | 9
Cn1ccn2ncc(C(=O)NCCC(=O)Nc3nccs3)c12 | -23
C[C@H]1CN([C@@H](C)CO)C(=O)c2cccc(NC(=O)Nc3ccc4c(c3)OCO4)c2O[C@@H]1CN(C)S(C)(=O)=O | 12
O=C(Cc1ccc(Cl)cc1Cl)N1CCC[C@@H]1[C@@H](O)c1nccs1 | 13
O=C(O)C1CCCN1C(=O)Nc1ccc(Cl)cc1 (stereo unspecified) | 48
COc1ccc(CN2CCC3(CC2)OC(C(=O)Nc2ccc(C)nc2)Cn2ccnc23)cc1 (stereo unspecified) | 18
